# A1 inhib: A1 inhibition; MEF A1-2A-BIM cells, caspase-Glo luminescence, 3 h; percent of clofoctol signal, DMSO as zero; caspase activation, % (concentration not given with the values); 21,000 compounds, 0.51% hits;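 active = most replicate scores above 10, or exactly half above 10 with mean activity above 10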;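 also: effector caspase 3 and 7 activity cleaving a DEVD luciferin substrate; 50 nL library stock added to about 30 µL; numbers are from one replicate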
# BJeLR viab HTS: lowers viability of BJeLR cells | BJeLR fibroblasts viability, CellTiterGlo ATP luminescence, 48 h; HRASV12, hTERT and SV40 LT/ST transformed | viability loss activity score, % (concentration not given with the values) | 30,000 compounds, 0.64% hits | AID 2275; in the data active = viability loss activity score above about 50%; about a fifth of its hits are not listed in these tables;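 also: higher score means fewer live cells and less ATP luminescence; stock transfer was 50 or 100 nL into about 30 µL; 0% = vehicle wells and 100% = a reference killing control; one replicate is shown; the record names a cut of 85%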
# * = called active by the depositor; nt = not tested or not shown. Not all compounds are listed; count on the stated rates, not on these rows.
SMILES,A1 inhib,BJeLR viab HTS
C[C@@H]1CC(=O)C2=C(C1)C[C@@H](O)[C@@]1(O)C2C(=O)c2cccc(O)c2[C@@H]1O (stereo not given in full),0.1,3.8
C[C@H](CO)N1C[C@H](C)[C@@H](CN(C)S(=O)(=O)c2ccccc2)Oc2c(NS(=O)(=O)c3cn(C)cn3)cccc2C1=O,nt,0.3
O=C(CSc1ccc(-c2ccncc2)nn1)NCC1CCCO1 (stereo not given),-0.6,-1.4
C[C@@H]1CN([C@@H](C)CO)C(=O)c2cc(NC(=O)C3CC3)ccc2O[C@@H]1CN(C)CC1CCCCC1,0.5,-4.1
CSc1c(CC(=O)Nc2ccccc2)n(C)c2ccccc12,0.4,17
C[C@@H]1CN([C@@H](C)CO)C(=O)c2cc(NC(=O)Cc3cn(C)c4ccccc34)ccc2O[C@@H]1CN(C)Cc1ccc2c(c1)OCO2,-0.3,0.5
CCOC(=O)c1cc2ccccc2nc1C,-0.5,2.7
Cc1cc(O)ccc1-n1c(=O)c2cc3c(=O)n(-c4ccc(O)cc4C)c(=O)c3cc2c1=O,nt,-2.1
O=S(=O)(c1ccc(-c2cc(C(F)(F)F)ccn2)s1)N1CCCC1,-0.7,2.3
COc1ccc(NC(=O)NCC(C)CSc2ccc(Cl)cc2)c(OC)c1 (stereo not given),-0.3,1.6
C=CCN(C(=O)CSc1nnc(CC)n2c1cc1oc(C)cc12)c1ccccc1,-6.4,12
COc1ccc(Oc2coc3cc(OC(=O)N4CCOCC4)ccc3c2=O)cc1,nt,14
CCOc1ccc(CCNC(=O)C2=C(C)C(=O)OC23CCC(C)CC3)cc1 (stereo not given),nt,7.5
Cc1ccc(SCc2[nH]n(-c3nc4ccccc4s3)c(=O)c2C=NCc2ccco2)cc1,0.7,3.8
C[C@@H]1CN([C@@H](C)CO)C(=O)c2cc(NC(=O)CCCCCC(=O)Nc3ccccc3N)ccc2O[C@@H]1CN(C)S(=O)(=O)c1ccc(Cl)cc1,nt,-6.4
CCc1ccc(-n2c(N(C)Cc3ccccc3)nc3ccccc3c2=O)cc1,nt,6.5
C[C@H]1CN([C@@H](C)CO)C(=O)c2cc(NC(=O)NC3CCCCC3)ccc2O[C@H]1CN(C)S(=O)(=O)c1ccc(Cl)cc1,0.4,0.9
O=C(/C=C/c1ccccc1)Oc1ccccc1,-2.3,-1.3
CCCN(CCC)S(=O)(=O)c1ccc(C(=O)O)cc1,0.3,4.5
CNC[C@H]1Oc2c(NC(=O)c3nc4ccccc4s3)cccc2C(=O)N([C@@H](C)CO)C[C@@H]1C,nt,2.5
CC(C)(C)C1CCC2(CC1)C(C#N)C2(C#N)C(=O)c1ccccc1 (stereo not given),0.1,6.7
O=C(Nc1ccccc1)Nc1ccccc1Sc1nccc(C(F)(F)F)n1,nt,8.3
COc1ccc(CN(C)C[C@@H]2Oc3c(NC(=O)c4cnccn4)cccc3C(=O)N([C@H](C)CO)C[C@H]2C)cc1,nt,2.7
COc1ccc(CN(C)C[C@@H]2Oc3c(NC(=O)C4CCCCC4)cccc3C(=O)N([C@H](C)CO)C[C@@H]2C)cc1,nt,3.3
C[C@@H]1CN([C@H](C)CO)C(=O)c2cccc(NC(=O)c3ccncc3)c2O[C@@H]1CN(C)S(=O)(=O)c1ccccc1,nt,3.9
CCN(CC)S(=O)(=O)c1cccc(C(=O)NN)c1,-0.3,4.1
CO/N=C(\C(=O)N[C@@H]1C(=O)N2C(C(=O)O)=C(COC(C)=O)CS[C@H]12)c1csc(N)n1,-1.1,-7.1
CCc1ccc2oc(-c3ccc(NC(=O)c4ccccc4)cc3)nc2c1,1.5,4.0
C[C@@H]1CN([C@@H](C)CO)C(=O)c2cc(NC(=O)CCCCCC(=O)Nc3ccccc3N)ccc2O[C@@H]1CN(C)C(=O)Nc1ccc(C(F)(F)F)cc1,nt,0.6
COc1nonc1NC(C)=O,-0.9,-2.0
CNC[C@H]1Oc2c(NS(=O)(=O)c3ccc(C)cc3)cccc2C(=O)N([C@@H](C)CO)C[C@@H]1C,nt,-4.8
O=C(Nc1ccccc1)Nc1cccc(C(F)(F)F)c1,-1.5,4.1
COc1ccc(S(=O)(=O)N(C)C[C@H]2Oc3ccc(N(C)C)cc3C(=O)N([C@H](C)CO)C[C@H]2C)cc1,-0.7,1.7
O=c1cc(CSCc2ccc(Cl)cc2)[nH]c(=O)[nH]1,-0.3,1.7
O=C(NCc1cccnc1)c1ccc(/C=C2\Sc3ccccc3N(Cc3ccccc3F)C2=O)cc1,nt,123*
C[C@H]1CN([C@@H](C)CO)C(=O)c2cccc(NC(=O)Nc3ccc(F)cc3)c2O[C@@H]1CN(C)C(=O)Nc1ccc(F)cc1,nt,-2.9
CCCc1c(C(=O)OCC)[nH]c2c1C(=O)CC(C)(C)C2,nt,-6.1
COc1ccc(S(=O)(=O)Nc2ccc3c(c2)C(=O)N([C@@H](C)CO)C[C@H](C)[C@@H](CN(C)Cc2ccc(C(=O)O)cc2)O3)cc1,0.5,-2.9
O=C(CSC1=NCCS1)Nc1nc(-c2ccccc2)cs1,-1.4,4.1
CCO/C([O-])=N\c1c[n+](N2CCOCC2)no1,-0.3,0.5

# An excerpt of the results above, for reference:
SMILES,A1 inhib,BJeLR viab HTS
C[C@@H]1CC(=O)C2=C(C1)C[C@@H](O)[C@@]1(O)C2C(=O)c2cccc(O)c2[C@@H]1O (stereo not given in full),0.1,3.8
C[C@H](CO)N1C[C@H](C)[C@@H](CN(C)S(=O)(=O)c2ccccc2)Oc2c(NS(=O)(=O)c3cn(C)cn3)cccc2C1=O,nt,0.3

# The results go on:
SMILES,A1 inhib,BJeLR viab HTS
CCCOc1ccc(C(=O)NCC2(c3ccc(OC)cc3)CCOCC2)cc1,nt,1.2
CNC[C@H]1Oc2c(NS(=O)(=O)c3ccc(OC)cc3)cccc2C(=O)N([C@@H](C)CO)C[C@@H]1C,nt,-1.5
C[C@H](CO)N1C[C@H](C)[C@@H](CN(C)S(=O)(=O)c2ccc(F)cc2)Oc2c(NS(=O)(=O)c3ccc(Cl)cc3)cccc2C1=O,nt,-5.2
CC(=O)Oc1ccc(N(C(C)=O)S(=O)(=O)c2ccc3ccccc3c2)cc1,-0.1,4.0
O=C(CC(c1ccccc1)c1ccccc1)Nc1ccccn1,-1.5,-0.1
C[C@@H]1CN([C@H](C)CO)C(=O)c2cc(NC(=O)Cn3cnnn3)ccc2O[C@H]1CN(C)S(=O)(=O)c1cn(C)cn1,0.5,-3.6
CCOC(=O)CSc1nnc(Cn2nnc3ccccc32)n1-c1ccc(F)cc1,0.8,0.7
Cc1c(C(=O)NC(C)C)oc2ccc(S(=O)(=O)N3CCCC3)cc12,nt,4.1
COc1ccc(CN(C)C[C@H]2Oc3ccc(NS(=O)(=O)c4cn(C)cn4)cc3C(=O)N([C@@H](C)CO)C[C@@H]2C)cc1,0.2,-1.7
Cc1ccc(Cn2nc(C(=O)Sc3cccc(Cl)c3Cl)cc2C)cc1,-0.3,-1.3
CCOc1ccc(NC(=S)NCCCn2ccnc2)cc1,nt,2.2
C[C@@H]1CN([C@@H](C)CO)C(=O)c2cc(NC(=O)Nc3ccc4c(c3)OCO4)ccc2O[C@H]1CN(C)S(=O)(=O)c1ccccc1,-0.4,3.7
C=CCNC(=O)Nc1ccc(Cl)cc1,-2.4,1.3
C[C@@H]1CN([C@H](C)CO)C(=O)c2cccc(N(C)C)c2O[C@H]1CN(C)S(=O)(=O)c1ccc(F)cc1,nt,-1.4
CCN(CC)C(=O)Cn1cc(S(=O)(=O)CC(=O)N2CCCCC2)c2ccccc21,0.5,2.0
CN(Cc1cc(Br)cc(Br)c1N)C1CCCCC1,-1.3,11
CC(NC(=O)C1CCN(C(=O)N(C)C)CC1)c1ccccc1 (stereo not given),-0.3,0.8
CCOC(=O)c1cnc2oc3ccc(O)cc3c2c1-c1ccccc1,-0.8,-8.3
CC(C(=O)O)(c1ccccc1)c1ccccc1,-0.1,0.7
COc1ccc(S(=O)(=O)N(C)C[C@@H]2Oc3c(NC(=O)c4ccncc4)cccc3C(=O)N([C@H](C)CO)C[C@@H]2C)cc1,nt,-3.9
CCCNC(=O)c1ccc(CSc2nc3ccncc3[nH]2)cc1,0.1,3.3
COc1ccc(S(=O)(=O)Nc2ccc3c(c2)C(=O)N([C@H](C)CO)C[C@@H](C)[C@@H](CN(C)S(=O)(=O)c2ccc(C)cc2)O3)cc1,-0.6,3.1
C[C@H](CO)N1C[C@H](C)[C@@H](CN(C)S(=O)(=O)c2ccc(Cl)cc2)Oc2ccc(NS(C)(=O)=O)cc2C1=O,-0.3,0.8
C[C@@H]1CN([C@H](C)CO)C(=O)c2cccc(NC(=O)c3nc4ccccc4s3)c2O[C@@H]1CN(C)Cc1ccncc1,nt,-2.5
COc1ccc2c(C)c(CC(C)O)c(=O)oc2c1 (stereo not given),-0.6,-3.4
CC1CC(C)CN(CCCNC(=O)Cc2c(C(=O)O)[nH]c3ccccc23)C1 (stereo not given),nt,-0.4
CC(C)(c1ccc(NS(=O)(=O)C(F)(F)F)cc1)c1ccc(C(C)(C)c2cccc(NS(=O)(=O)C(F)(F)F)c2)cc1,-0.9,-0.4
Cc1ccc2nc(-c3cccc(-c4nc5ccc(C)cc5o4)n3)oc2c1,nt,-3.0
C[C@H](CO)N1C[C@H](C)[C@H](CN(C)C)Oc2c(NS(=O)(=O)c3cn(C)cn3)cccc2C1=O,nt,-2.8
Cc1cc(C(=O)N2CCN(Cc3ccccc3)CC2)n[nH]1,0.6,1.1
CC(C)[C@H]1COC(c2cccc(C3=N[C@@H](C(C)C)CO3)n2)=N1,-0.8,-3.5
CCC1=C(C)CN(C(=O)NCCc2ccc(S(=O)(=O)NC(=O)NC3CCC(C)CC3)cc2)C1=O (stereo not given),-0.2,9.3
COc1cccc(C(=O)NC(=S)Nc2ccc(O)c(-c3nc4ccccc4s3)c2)c1,nt,-8.1
CCCOc1cccc(C(=O)Nc2ccc(C(=O)OC)cc2)c1,-1.1,2.7
CC(C)NC(=O)Nc1cccc2c1O[C@@H](CN(C)S(=O)(=O)c1ccc(Cl)cc1)[C@@H](C)CN([C@@H](C)CO)C2=O,nt,-1.0
O=C(Nc1ccccc1C(F)(F)F)C1c2ccccc2Oc2ccccc21,1.0,0.1
C=C1C(=O)OC2/C=C(\CO)C(OC(C)=O)C/C=C(/C)CC(OC(=O)/C(C)=C\CO)C12 (stereo not given),1.2,34
Cc1cc(C)c2c(c1C(=O)Nc1cccc(C(F)(F)F)c1)CC(C)(C)C2=O,0.2,3.7
COc1ccc(CCN2C(=S)NC3CC2(C)Oc2c(OC)cc(Br)cc23)cc1OC (stereo not given),-0.9,-3.1
COc1cc(CNCc2cccc(C(F)(F)F)c2)cc(OC)c1,-0.7,3.2

# Part of the list above in order of formula weight, rising:
SMILES,A1 inhib,BJeLR viab HTS
CC(C)NC(=O)Nc1cccc2c1O[C@@H](CN(C)S(=O)(=O)c1ccc(Cl)cc1)[C@@H](C)CN([C@@H](C)CO)C2=O,nt,-1.0
COc1ccc(S(=O)(=O)N(C)C[C@@H]2Oc3c(NC(=O)c4ccncc4)cccc3C(=O)N([C@H](C)CO)C[C@@H]2C)cc1,nt,-3.9
C[C@H](CO)N1C[C@H](C)[C@@H](CN(C)S(=O)(=O)c2ccc(F)cc2)Oc2c(NS(=O)(=O)c3ccc(Cl)cc3)cccc2C1=O,nt,-5.2

# New compounds follow.
SMILES,A1 inhib,BJeLR viab HTS
COc1ccc(CN(C)C[C@H]2Oc3ccc(NS(C)(=O)=O)cc3C(=O)N([C@@H](C)CO)C[C@@H]2C)cc1,0.4,5.8
CC(CCc1ccccc1)NCc1c(C(=O)O)n(Cc2ccc(F)cc2Cl)c2ccccc12 (stereo not given),nt,-4.0
Cc1ccc(S(=O)(=O)Nc2ccc3c(c2)C(=O)N([C@@H](C)CO)C[C@H](C)[C@@H](CN(C)Cc2ccc(-c4ccccc4)cc2)O3)cc1,nt,-0.1
Cc1cc(C)nc(NC(=NCc2ccc(Cl)cc2)NC(=O)C(C)N2C(=O)c3ccccc3C2=O)n1 (stereo not given),-0.2,4.3
O=C(NC1CCN(Cc2ccccc2)CC1)[C@H](Cc1ccccc1)N1Cc2ccccc2C1=O,nt,-2.0
C[C@H]1CN([C@@H](C)CO)C(=O)c2cccc(NS(=O)(=O)c3ccc(F)cc3)c2O[C@H]1CN(C)S(=O)(=O)c1ccc(Cl)cc1,nt,-0.7
N#CCSc1nc2ccccc2c(=O)n1CCC(=O)NC1CCCCC1,1.0,-1.9
C[C@H]1CN([C@@H](C)CO)C(=O)c2cccc(NC(=O)C3CCOCC3)c2O[C@H]1CN(C)CC1CC1,nt,0.9
O=C1CC2(CCCC2)C(=O)N1c1ccc(S(=O)(=O)N2CCc3ccccc3C2)cc1Cl,0.4,5.8
CCOc1cc(CNc2ccc(OC)cc2)ccc1OCC(=O)NC(C)(C)C,nt,-0.4
COc1ccc(NC(=O)Nc2cccc3c2O[C@@H](CN(C)S(=O)(=O)c2ccc(OC)cc2)[C@@H](C)CN([C@H](C)CO)C3=O)cc1,nt,2.2
C[C@H](CO)N1C[C@H](C)[C@H](CN(C)CC2CCCCC2)Oc2ccc(NS(=O)(=O)c3ccc(Cl)cc3)cc2C1=O,-0.3,-0.8
O=C(Nc1ccc(-c2nc3cccnc3s2)cc1)c1ccccc1,-0.5,3.2
COc1ccc(CN(C)C[C@H]2Oc3c(NS(=O)(=O)c4cn(C)cn4)cccc3C(=O)N([C@H](C)CO)C[C@@H]2C)cc1,nt,0.3
CC(=O)Oc1ccc(C(=O)Nc2ccc(F)cc2F)cc1,-5.2,10
CC(=O)NC(=S)Nc1nc2ccccc2n1C(C)=O,nt,1.5

# Some of the entries so far, tab-delimited:
SMILES	A1 inhib	BJeLR viab HTS
CNC[C@H]1Oc2c(NS(=O)(=O)c3ccc(C)cc3)cccc2C(=O)N([C@@H](C)CO)C[C@@H]1C	nt	-4.8
O=C(Nc1ccccc1)Nc1cccc(C(F)(F)F)c1	-1.5	4.1
COc1ccc(S(=O)(=O)N(C)C[C@H]2Oc3ccc(N(C)C)cc3C(=O)N([C@H](C)CO)C[C@H]2C)cc1	-0.7	1.7

# Screens: PubChem BioAssay, Broad Institute
